Calb biofilm kill – clotrimazole potentiators killing C. albicans biofilm, primary screen, 4-compound mixtures | C. albicans biofilm persisters + clotrimazole, fluorescence viability; primary screen in compound mixtures of four per well | AID 1242, 2008 | actives 0.02% (n = 120,000) | inhibition, % at 7.6 µM;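 active = inhibition above 30.3% in the primary screen of four-compound pools, then above 30% when the compound was retested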;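 also: compounds exposed to preformed 24 h biofilms for 48 h; the number belongs to the whole pool; some results filed as inactive read as strong as hits; inactives centre near 12; 0% = biofilm with clotrimazole alone and 100% = kill control; retested singly at about 60 µM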
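Assay system: C. albicans biofilms / Medium: RPMI/MOPS medium, pH 7.0 / Schedule: biofilm formation 24 h, compound exposure 48 h, 37 °C / Measured by: Alamar Blue fluorescence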
Active calls of the source: *. Only part of the results is shown; count on the stated rates, not on these rows.

| Compound | Calb biofilm kill |
| --- | --- |
| CC(NC(=O)CNC(=S)N(Cc1cccs1)C1CCCC1)c1ccccc1 (centres undefined) | 13 |
| CSc1nc(-c2cccs2)c(C#N)c(=O)[nH]1 | 11 |
| CCCCC1CCC(C(=O)OCC(=O)Nc2ccc(S(N)(=O)=O)cc2)CC1 (centres undefined) | 7 |
| OCC1CCCN(C(=S)Nc2ccc(Oc3ccccc3)cc2)C1 (centres undefined) | 13 |
| Cc1ccc2c(c1)N=C(c1ccccc1)CC(C(Cl)Cl)=N2 | 14 |
| O=C(c1n[nH]c(=O)c2ccccc12)N1CCN(Cc2ccc3c(c2)OCO3)CC1 | 15 |
| CCN1CCN(c2ccc(S(=O)(=O)N3CCCCC3)cc2NC(=O)c2ccc(F)cc2)CC1 | 8 |
| NS(=O)(=O)c1ccc(NC(=S)N2CCN(Cc3ccc(Cl)c(Cl)c3)CC2)cc1 | 13 |
| COc1ccc(OC(C)C(=O)Nc2cccc([N+](=O)[O-])c2)cc1 (centres undefined) | 12 |
| O=C1CCCN1c1cc(Cl)cc(Cl)c1 | 11 |
| C/C(CC(=O)Nc1ccc(Cl)cc1Cl)=N\NC(=O)c1cnccn1 | 8 |
| COC(=O)C1=C(C)N(c2cc(C)cc(C)c2)/C(=C/c2ccco2)C1=O | -1 |
| COC(Cn1c2c(c3cc(C)ccc31)CCCC2NCc1ccccc1)OC (centres undefined) | 16 |
| CC1C(=O)NN=C1C(=O)N/N=C/c1cccs1 (centres undefined) | 1 |
| O=C1C(Cl)=C(NC2CCCCC2)C(=O)N1Cc1ccccc1 | 9 |
| COc1ccc(Cl)cc1NC(=O)CN(C)CC(=O)Nc1ccccc1N1CCOCC1 | 14 |
| OC1(c2ccc(Br)cc2)CN(c2ccccc2)C2=[N+]1CCS2 (centres undefined) | 20 |
| O=C(Cn1cc(C(F)(F)F)ccc1=O)N/N=C/c1ccc(Cl)cc1Cl | 3 |
| OCCn1c(C(F)(F)F)nc2ccccc21 | 7 |
| Cc1ccc(C(=O)NCCc2cccc(Cl)c2)cc1[N+](=O)[O-] | 18 |
| C/C(O)=C(\C#N)P(=O)(c1ccccc1)c1ccccc1 | 1 |
| CCOc1ccc(N2C(=O)CC(NCCNc3ccc(C(=O)c4cccs4)cc3)C2=O)cc1 (centres undefined) | 5 |
| COCCCN=Cc1c(-c2ccccc2)[nH]n(-c2nc3ccccc3s2)c1=O | 24 |
| CC(C)(C)c1ccc(NC(=O)N2CCN(c3ccc([N+](=O)[O-])cn3)CC2)cc1 | 20 |
| CCn1c(CNc2cccc(C(F)(F)F)c2)n[nH]c1=S | 18 |
| O=C(COC(=O)C1CCCCC1)Nc1cc([N+](=O)[O-])ccc1F | -9 |
| O=C(CSc1nnc(-c2cccs2)n1CC1CCCO1)N1CCCC1 (centres undefined) | 17 |
| Cc1ccccc1NS(=O)(=O)c1ccc2[nH]c(=O)[nH]c2c1 | 0 |
| Cc1cnc2cc(Cl)ccc2c1SCC(=O)O | 18 |
| Cc1ccc(C2(c3noc(CN(C)Cc4cnn(C)c4)n3)CCCC2)cc1 | 15 |
| Cc1cc(C)c(C#N)c(SCC(=O)NN2CC(=O)N(c3ccccc3F)CC2=O)n1 | 6 |
| COc1ccccc1-n1cc(-c2ccc(Cl)cc2)[nH]c1=O | 9 |
| COc1ccccc1CNC(=O)COC(=O)c1cccnc1SCC(=O)NCc1ccccc1OC | 9 |
| N#C/C(=C\c1cccs1)C(=O)Nc1nccs1 | 9 |
| COCCNc1nc2sc3c(c2c(=O)n1Cc1ccco1)CCCCC3 | 11 |
| COCc1cc(=O)[nH]c(-c2ccc(C(F)(F)F)cc2)n1 | 28 |
| CSc1nc2c(c(=O)[nH]1)C(c1ccccc1Cl)CC(=O)N2 (centres undefined) | -1 |
| O=C(O)CCC/C=C\C[C@@H]1[C@@H](/C=C/[C@@H](O)COc2cccc(Cl)c2)[C@H](O)C[C@@H]1O | 13 |
| COc1ccc(CN(CC(=O)NC2CCCCC2)C(=O)CCCC(=O)Nc2ccccn2)cc1 | 22 |
| CC(=O)N1CCN(c2ccc([N+](=O)[O-])c(-n3nc(C)cc3C)c2)CC1 | 18 |
| Cc1ccc(S(=O)(=O)Nc2cnc3ccccc3c2)cc1 | 26 |
| COc1cc(NC(=S)NC(=O)C(C)C)ccc1NC(=O)c1cc2ccccc2o1 | 20 |
| COc1ccc(-n2ccnc2SCC(=O)NCc2ccco2)c(OC)c1 | 25 |
| Cc1ccc(SC2CC(=O)N(c3ccc4c(c3)OCCO4)C2=O)cc1 (centres undefined) | 11 |
| CCCc1c(C)nn(C(=O)/C(C#N)=N/Nc2ccccc2[N+](=O)[O-])c1C | 3 |
| COc1cccc(CN(C)CC(=O)Nc2ccccc2C(C)C)c1 | 13 |
| Cc1cccc(-c2nc3c(c(SCC(=O)N(C)C)n2)CCCC3)c1 | -4 |
| CCC(=O)NNc1ccc(Br)cc1 | 10 |
| CC(=O)c1ccc(NC(=S)N2CCCC(CO)C2)cc1 (centres undefined) | 17 |
| Cc1cccc(-c2nnc(NC(=O)c3ccc(N4C(=O)CCC4=O)cc3)s2)c1 | -1 |
| O=C(N/N=C/c1coc2ccccc2c1=O)c1cccc([N+](=O)[O-])c1 | -1 |
| O=C(CN1C(=O)S/C(=C/c2ccc(N3CCOCC3)cc2)C1=O)N1CCOCC1 | 4 |
| CC(=O)Nc1ccc(C2=NN(C)C(=NCc3ccccc3)SC2)cc1 | 14 |
| Cc1nn(-c2ccc(F)cc2)c(C)c1CN1CCN(Cc2ccccc2)C(CCO)C1 (centres undefined) | -9 |
| COc1ccc(C2/C=C\CN(Cc3ccncc3)CC(=O)N2Cc2ccc(F)cc2)cc1 (centres undefined) | 22 |
| C/C(=N\N=c1/sc2ccccc2n1C)c1ccccn1 | -8 |
| COc1ccccc1OCCC(=O)OCC(=O)Nc1ccc(Br)cc1 | 13 |
| O=C(NCc1cccc(C(F)(F)F)c1)c1cc(Cl)ccc1Cl | 8 |
| COc1ccc(N/C=C/C(=C(C#N)C#N)N(C)C)cc1 | -5 |
| Cc1cc(C(=O)COC(=O)c2cccnc2Cl)c(C)n1CC1CCCO1 (centres undefined) | 8 |

The list continues.
| Compound | Calb biofilm kill |
| --- | --- |
| Cc1cc(-c2nnc(CCC(=O)NCc3ccc(F)c(F)c3)o2)no1 | 14 |
| CC1(C)CC(=O)C2=C(C1)N(N1CCOCC1)C(N)=C(C#N)C2c1cccs1 (centres undefined) | 8 |
| COC(=O)C/C=N/N=C1/NC(=O)/C(=C/C(=O)O)S1 | 16 |
| c1ccc2c(CN3CCOCC3)csc2c1 | 11 |
| CSc1ccccc1NC(=O)c1ccc([N+](=O)[O-])cc1 | 13 |
| COc1ccc(NC(=O)c2cn(-c3ccccc3)nc2-c2ccncc2)cc1 | 10 |
| CCCNCc1cc(OC)c(OCC(=O)Nc2ccccc2)cc1Br | 14 |
| Cn1cccc1/C=C1\SC(=S)N(CC(=O)O)C1=O | 11 |
| CCN(c1ccc(NC(=O)c2ccc(Cl)nc2)cc1)C(C)C | 18 |
| O=c1[nH]c(-c2ccccc2F)nc2c1sc(=S)n2Cc1ccccc1 | 28 |
| CCn1ccnc1CN1CCN(CCC(C)C)C(CCO)C1 (centres undefined) | -4 |
| CCCNC(=O)c1ccc2c(=O)c(O)c(-c3ccc(Cl)c([N+](=O)[O-])c3)[nH]c2c1 | 13 |
| Cc1ccc(Oc2nc3ccccn3c(=O)c2/C=C(\C#N)C(=O)Nc2c(C)n(C)n(-c3ccccc3)c2=O)cc1 | 10 |
| O=C(Nc1ccccc1)Nc1cc([N+](=O)[O-])ccc1F | 18 |
| CCN(CC(=O)NC(C)C)C(=O)[C@H](C)NC(=O)c1ccc(Br)cc1 | -4 |
| c1ccc(CCC2CCCCN2Cc2nc(-c3ccc4c(c3)OCO4)no2)nc1 (centres undefined) | 10 |
| O=C1c2ccccc2NC(c2ccccc2)N1NS(=O)(=O)c1ccccc1 (centres undefined) | 29 |
| O=C(Cc1cccs1)Nc1cc(SCCO)cc([N+](=O)[O-])c1 | 16 |
| CCCOc1ccc(NC(=O)CC2C(=O)N(CC)C(=S)N2CCCN2CCN(Cc3ccccc3)CC2)cc1 (centres undefined) | 15 |
| O=S(=O)(NC(=S)NC1CCCCC1)c1ccccc1 | 28 |
| CC(=O)c1cnc(-c2cccc(Cl)c2)s1 | 8 |
| O=C(CSc1n[nH]c(=O)[nH]c1=O)Nc1ccc2c(c1)C(=O)c1ccccc1C2=O | 21 |
| COc1ccc(CNc2nc(-c3ccccc3)nn2C(=O)c2ccc([N+](=O)[O-])cc2)cc1 | 9 |
| CCN(C(=O)CSc1ccc2ccccc2c1)C1CCS(=O)(=O)C1 (centres undefined) | 18 |
| COC(=O)c1ccccc1N=Nc1c(C)n[nH]c1C | 10 |
| COc1ccccc1CNC(=O)CCc1c(C)nc2cc(-c3ccccc3OC)nn2c1C | 2 |
| CCOC(=O)c1c(C)[nH]c(C(=O)NNC(=O)c2ccc(C(C)(C)C)cc2)c1C | 10 |
| O=C(CN1CCCCCC1)Nc1ccc(F)c(F)c1 | 18 |
| Cc1cc(Cl)ccc1NC(=S)N1CCN(C(=O)C2CCCO2)CC1 (centres undefined) | 11 |
| COC(=O)COc1ccc(S(=O)(=O)N2CCCCC2)cc1[N+](=O)[O-] | 13 |

In the list so far, four have a COOH group.
| Compound | Calb biofilm kill |
| --- | --- |
| Cc1cnc2cc(Cl)ccc2c1SCC(=O)O | 18 |
| O=C(O)CCC/C=C\C[C@@H]1[C@@H](/C=C/[C@@H](O)COc2cccc(Cl)c2)[C@H](O)C[C@@H]1O | 13 |
| COC(=O)C/C=N/N=C1/NC(=O)/C(=C/C(=O)O)S1 | 16 |
| Cn1cccc1/C=C1\SC(=S)N(CC(=O)O)C1=O | 11 |

Looked up one by one from above (3):
| Compound | Calb biofilm kill |
| --- | --- |
| c1ccc(CCC2CCCCN2Cc2nc(-c3ccc4c(c3)OCO4)no2)nc1 (centres undefined) | 10 |
| COC(=O)C/C=N/N=C1/NC(=O)/C(=C/C(=O)O)S1 | 16 |
| O=c1[nH]c(-c2ccccc2F)nc2c1sc(=S)n2Cc1ccccc1 | 28 |

Other structures follow.
| Compound | Calb biofilm kill |
| --- | --- |
| CC(/C=C/c1ccccc1)=N\NC(=O)c1cc(C)[nH]n1 | 18 |
| COc1ccc(Nc2oc(-c3ccc(F)cc3)nc2C#N)cc1 | 38 |
| CCc1nnc(NS(=O)(=O)c2ccc(N/C=C\C(=O)c3ccc(F)cc3)cc2)s1 | -10 |
| CN(C)CCN(C)Cc1ccccc1Sc1cccc2ccccc12 | 14 |
| COc1cccc(Oc2ccc(OC)cc2C(=O)O)c1 | 9 |
| CCOc1ccc(C(C)NC(=O)Cc2ccccc2F)cc1OCC (centres undefined) | 11 |
| COc1ccc(C2=NC(=O)NC2c2ccc(OC)cc2)cc1 (centres undefined) | 11 |
| Cc1cc(C(=O)OCC(=O)NC2CCS(=O)(=O)C2)c2ccccc2n1 (centres undefined) | -21 |
| O=[N+]([O-])c1ccccc1Sc1nccn1Cc1ccccc1 | 19 |
| CN1CCN(Cc2c(O)ccc3cc(Br)ccc23)CC1 | 6 |
| Cc1occc1C(=O)N/N=C/c1ccc2c(c1)OCO2 | 20 |
| CCSc1ccccc1C(=O)Nc1cc(OC)c(OC)c(OC)c1 | 16 |
| COC(=O)c1cc2c(s1)-c1cc(F)ccc1OC2 | 18 |
| CCOC(=O)c1sc(NC(=O)CNCc2ccccn2)c(C(=O)OCC)c1C | 15 |
| CC(C)(C)NC(=O)/C=C/c1cccs1 | 10 |
| O=C(CSc1cccc[n+]1[O-])Nc1ccc(N2CCOCC2)cc1 | 13 |
| Cc1nc2cc(C(=O)OCC(=O)NC34CC5CC(CC(C5)C3)C4)ccc2n1-c1ccccc1 | 16 |
| NNC(=O)c1ccc(Cn2cc(Cl)cn2)o1 | 3 |
| CCOC(=O)CN1C(=O)N[C@@H](c2ccc(Br)cc2)C(C(=O)OC)=C1C | 21 |
| N#Cc1c(-c2ccccc2)c(-c2ccccc2)nn(CC(=O)NNC(=O)Nc2ccc(Cl)cc2)c1=O | 7 |
| CCN(CC)S(=O)(=O)c1cccc(C(=O)/C=C2/N(C)c3ccccc3C2(C)C)c1 | 3 |
| O=c1c2c(nc3nc(NCc4cccc(Cl)c4)[nH]n13)CCC2 | 10 |
| Cc1cccc(C(=O)NC(=S)Nc2ccc3[nH]c(=O)[nH]c3c2)c1 | 6 |
| Cn1ncc2c(NNC(=O)Cc3ccccc3)ncnc21 | 18 |
| Cc1cccc(NC(=O)/C=C/c2ccc(Cl)cc2)n1 | 12 |
| C=CCNC(=O)c1cc(Cl)cc(Cl)c1 | 1 |
| CC(NC(=O)c1ccccc1)C(=O)N/N=C/c1ccc(O)cc1 (centres undefined) | 13 |
| COc1ccc(CSc2nncn2C)cc1[N+](=O)[O-] | 12 |
| O=C(O)C(Cc1ccccc1)N1C(=O)/C(=C/c2ccccc2)SC1=S (centres undefined) | 1 |
| CCCS(=O)(=O)N1CCN=C1SCc1cccc(C)c1 | 18 |
| c1ccc(-n2nnnc2-c2cccnc2)cc1 | 6 |
| O=C(CCCCCNC(=S)Nc1ccc(Cl)cc1)C[N+](=O)[O-] | 2 |
| CCN(C(=O)c1ccc(Cl)c([N+](=O)[O-])c1)c1ccccc1 | 7 |
| Cc1ccc(C)c(NC(=S)c2ccc3ccccc3n2)c1 | 18 |
| Nc1ccccc1SCC1CSc2nc3ccccc3c(=O)n21 (centres undefined) | 7 |
| Cc1ncc(CN=Cc2ccc(Cl)cc2)c(N)n1 | 10 |
| CCn1cc(C(=O)O)c(=O)c2cc(F)c(N/N=C/c3ccccc3[N+](=O)[O-])cc21 | 17 |
| CCOC(=O)Cc1csc(NC(=O)Cc2ccc(C)cc2)n1 | 12 |
| FC(F)C(F)(F)c1cc(-c2ccccc2)n[nH]1 | 1 |
| O=C(Cc1cccc2ccccc12)NC(=S)Nc1cccc(C(=O)O)c1 | 14 |
